# Assay outcomes as filed in PubChem BioAssay.
# FGF22 binding: binders of human FGF22 protein, primary screen, FGF22 synaptogenesis inhibitor project, biophysical, thermal shift, single point | calls only at 9.99 µM | recombinant FGF22 thermal shift, SYPRO orange fluorescence; percent of sucrose octasulfate shift, DMSO zero | actives 1.5% (n = 340,000);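 active means melting point raised past a set limit in the mean and every replicate; inconclusive means no clear call; three in four hits are not shown here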
# Target sequence (Q9HCT0 whole entry, looked up): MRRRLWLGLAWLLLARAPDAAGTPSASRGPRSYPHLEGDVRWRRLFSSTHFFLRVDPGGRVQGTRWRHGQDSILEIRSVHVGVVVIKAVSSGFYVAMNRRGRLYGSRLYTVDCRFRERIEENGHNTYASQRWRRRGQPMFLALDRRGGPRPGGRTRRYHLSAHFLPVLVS
# ALR H2O2 inh: inhibitors of human ALR sulfhydryl oxidase, primary screen, biochemical, H2O2 detection, HRP-luminol luminescence, single point | AID 485317, 2010 | inhibition, % (concentration not given with the values) | purified ALR, DTT oxidation | actives 3.8% (n = 290,000) | FAD-linked sulfhydryl oxidase ALR (Homo sapiens), P55789;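 active means mean and each replicate at 75% or more; inconclusive means only one of the two met; inactive means neither met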;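 further: stock transfer was 7.5 nL into about 7.5 µL; 0% = neutral wells and 100% = wells with inactivated enzyme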
# Target sequence (P55789 whole entry, looked up): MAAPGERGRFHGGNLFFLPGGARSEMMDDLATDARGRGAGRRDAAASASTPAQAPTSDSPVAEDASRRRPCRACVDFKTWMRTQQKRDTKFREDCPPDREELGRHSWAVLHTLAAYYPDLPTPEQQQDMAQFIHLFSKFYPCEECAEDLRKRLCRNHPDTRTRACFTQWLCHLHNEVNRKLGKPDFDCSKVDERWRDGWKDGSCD
# Calb FLC: C. albicans growth inhibition with fluconazole, primary screen, CaCi-2 strain, Alamar Blue fluorescence | C. albicans CaCi-2 (fluconazole-resistant clinical isolate) + fluconazole, 48 h | growth inhibition, % (test concentration not listed) | actives 0.57% (n = 300,000) | AID 1979, 2009;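 active means most replicates above 75%; inconclusive means exactly half above 75%; inactive means most below 75%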;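 further: all wells also contain fluconazole at 8 µg/ml as a sub-toxic cotreatment; 0% = median of DMSO wells and 100% = median of geldanamycin control wells; wells of about 8 µL received 7.5 nL stock; the first replicate is given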
# RanGTP-Impb inh: inhibitors of RanGTP-importin-beta interaction, primary screen, biochemical, FRET, CFP-Ran, YFP-importin-beta, homogeneous; inhibition, % (test concentration not listed); actives 1.1% (n = 300,000); cell-free CFP-Ran/YFP-importin-beta FRET ratio;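 active means most replicates above 15%; inconclusive means exactly half above 15%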;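 further: 0% = DMSO wells and 100% = Ran loaded with GDP instead of GTP; wells of about 40 µL received 100 nL stock; the first replicate is given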
# T cruzi inh: inhibitors of intracellular T. cruzi growth, primary screen, luminescence, NIH3T3 host cells; actives 1.4% (n = 300,000); T. cruzi beta-gal in NIH3T3, 90 h; inhibition, % (test concentration not listed);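 active means mean inhibition across valid replicates above about 55%, limit read from the data; inconclusive means mean below that limit but half or more replicates reach it; inactive means mean below it, under half of replicates reach it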;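 further: signal also drops with host cell toxicity which is not excluded here; 0% = plate median of DMSO wells and 100% = zero luminescence signal; higher percent means less beta-gal luminescence so fewer parasites; stock transfer was 50 nL into about 50 µL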
# Beta apoptosis: inhibitors of cytokine-induced beta cell apoptosis, primary screen, luminescence | actives 0.8% (n = 300,000) | AID 435005, 2010 | protection from apoptosis, % (test concentration not listed) | INS-1E cytokine-induced death, ATP luminescence, 48 h; percent of positive-control rescue, neutral wells zero;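 active means all replicates at 75% or more, or half of them and the mean; inconclusive means half reach 75% but not the mean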;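 further: 0% = cytokine-treated negative control wells and 100% = positive control rescue; higher means more ATP so stronger rescue from cytokine killing; wells of about 40 µL received 100 nL stock; the first replicate is given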
# MLL AF4-AF9 inh: inhibitors of AF4 peptide binding to AF9, primary screen, biochemical, AlphaScreen, biotin-AF4 peptide, FLAG-AF9, single point | actives 0.47% (n = 350,000) | inhibition, % at 10 µM;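 active means every replicate reaching a set inhibition limit, whatever the replicate mean, cut at about 25% in these data; inconclusive means mean inhibition reaches that limit but some replicates miss it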;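 further: 0% = plate neutral control median and 100% = total signal loss; the record names both 10 and 1 µM as test concentration; the first replicate is given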
# Target sequence (P42568 whole entry, looked up): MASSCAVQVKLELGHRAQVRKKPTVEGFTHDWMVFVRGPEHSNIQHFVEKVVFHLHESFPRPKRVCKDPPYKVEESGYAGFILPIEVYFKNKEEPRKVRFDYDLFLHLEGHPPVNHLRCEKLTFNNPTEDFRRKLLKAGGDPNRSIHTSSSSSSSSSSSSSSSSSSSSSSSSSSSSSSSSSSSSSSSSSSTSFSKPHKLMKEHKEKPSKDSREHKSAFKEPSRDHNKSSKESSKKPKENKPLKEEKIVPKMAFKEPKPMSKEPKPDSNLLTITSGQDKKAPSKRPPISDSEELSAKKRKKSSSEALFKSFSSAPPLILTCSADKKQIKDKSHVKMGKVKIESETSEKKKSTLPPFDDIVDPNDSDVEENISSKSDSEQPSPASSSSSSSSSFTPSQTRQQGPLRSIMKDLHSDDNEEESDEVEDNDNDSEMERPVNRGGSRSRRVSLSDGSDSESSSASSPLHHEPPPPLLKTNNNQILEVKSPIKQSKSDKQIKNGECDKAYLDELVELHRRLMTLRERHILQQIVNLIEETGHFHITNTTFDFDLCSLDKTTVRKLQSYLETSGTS
# Ecoli rRNA inh: reduced GFP signal of wild-type E. coli, primary screen, bacterial rRNA inhibitor project, GFP/RFP fluorescence, OD600, single point | E. coli WT GFP vs humanized-ribosome RFP mutants, 24 h; hits give low values; DMSO median 0, no signal -100 | GFP signal change (wild-type ribosome), % (test concentration not listed) | actives 1.6% (n = 350,000) | AID 720706, 2013;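 active means significant combined selectivity score with lowered wild-type GFP, culture density cut under 30%, mutant RFP and density less affected; inactive means any of these conditions unmet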; further: one replicate is shown; some compounds called inactive have numbers as strong as hits
# Ecoli rRNA inh OD600: recorded beside Ecoli rRNA inh, whose call it bears; OD600 change, %; measured here: OD600 growth;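 optical density of the mix in the first replicate; 0 = DMSO median and -100 = no signal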
# Ecoli rRNA inh RFP: recorded beside Ecoli rRNA inh, whose call it bears; RFP signal change, %; measured here: RFP humanized mutant strains;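 first replicate; 0 = DMSO median and -100 = no signal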
# Active calls of the source: *; i = inactive; ? = inconclusive; nt = no result given. Some of the compounds tested; the hit share may differ from the screen's.
# Start of the listing, in advance (three entries):
SMILES,FGF22 binding,ALR H2O2 inh,Calb FLC,RanGTP-Impb inh,T cruzi inh,Beta apoptosis,MLL AF4-AF9 inh,Ecoli rRNA inh,Ecoli rRNA inh OD600,Ecoli rRNA inh RFP
O=C(c1ccc(N2CCCC2=O)cc1)N1CCN(c2ccccc2)CC1,nt,30,2,-1.3,-10,2,nt,nt,nt,nt
CCN(CCCNC(=O)Cn1ncc2c([nH]c3ccc(C)cc32)c1=O)Cc1ccccc1,i,7,-8,-1.8,16,0,1.5,11,24,2.6
C=CCN(CC=C)c1nc2ccccc2nc1C(C#N)C(=O)OC(C)C (centres undefined),nt,31,-6,29*,10,-2,nt,nt,nt,nt

# The whole of this part, repeating the preview:
SMILES,FGF22 binding,ALR H2O2 inh,Calb FLC,RanGTP-Impb inh,T cruzi inh,Beta apoptosis,MLL AF4-AF9 inh,Ecoli rRNA inh,Ecoli rRNA inh OD600,Ecoli rRNA inh RFP
O=C(c1ccc(N2CCCC2=O)cc1)N1CCN(c2ccccc2)CC1,nt,30,2,-1.3,-10,2,nt,nt,nt,nt
CCN(CCCNC(=O)Cn1ncc2c([nH]c3ccc(C)cc32)c1=O)Cc1ccccc1,i,7,-8,-1.8,16,0,1.5,11,24,2.6
C=CCN(CC=C)c1nc2ccccc2nc1C(C#N)C(=O)OC(C)C (centres undefined),nt,31,-6,29*,10,-2,nt,nt,nt,nt
CCCCN=C(NNc1ccc(Br)cc1)C(=O)OCC,i,99*,0,-0.2,4,-7,1.4,7,6,-3.2
OCCC1CN(Cc2ccccc2OC2CCCC2)CCN1Cc1ccsc1 (centres undefined),nt,-2,0,-3.3,25,2,nt,nt,nt,nt
Cc1cccc(OCc2n[nH]c(=S)o2)c1,nt,44,39,-2.0,-7,-4,nt,nt,nt,nt
Cc1ccc(OCC(=O)Nc2ccc(C(N)=O)cc2)cc1,i,-32,-4,-5.0,0,-5,-1.8,5,3,1.7
CCCNC(=O)CN1C(=O)COc2ccc(S(=O)(=O)N3CC(C)CC(C)C3)cc21 (centres undefined),i,-1,5,1.8,5,-5,-1.1,2,1,-0.5
Fc1ccc(CSc2nnc(-c3cccs3)o2)cc1,i,-3,-25,5.5,9,-7,-46,-29,-25,-11
CCOC(=O)C1=C(C)N(c2ccc(C)cc2)C(=O)/C1=C\c1cccs1,nt,-6,-30,?,13,-1,nt,nt,nt,nt
CCOc1c(Cl)cc(C(=O)NCCN2CCCCC2)cc1Cl,nt,-6,32,4.8,27,-4,nt,nt,nt,nt
CCn1c(NCc2ccc(N(C)C)cc2)nc2ccccc21,nt,50,10,0.7,-7,nt,nt,nt,nt,nt
Cc1ccccc1/C(N)=N/OC(=O)N1c2ccccc2Sc2ccccc21,nt,39,-1,-2.5,34,5,nt,nt,nt,nt
COc1ccc2c(C)cc(=O)oc2c1C,nt,-2,10,0.5,6,-9,nt,nt,nt,nt
O=C(CCCSc1nc2ccccc2[nH]1)NCc1ccccc1F,i,0,-1,-1.1,-15,-1,0.9,-23,-30,25
O=C(Nc1ccc(C(=O)N2CCOCC2)cc1)c1cnn2c(C(F)F)cc(-c3ccccc3)nc12,i,0,39,6.3,0,-2,-3.3,11,3,-7.3
CCOc1ccccc1C(=O)Nc1cccc(-c2ccc3nncn3n2)c1,i,1,13,4.5,6,8,-1.0,-7,-17,1.8
CCN(CC(=O)NC(=O)NC1CCCC1)Cc1ccccc1,i,-10,-10,-0.1,1,-2,1.5,0,-4,3.7
Cc1cc(=O)oc2c(C)c(OC(C)C(=O)NC3CCN(Cc4ccccc4)CC3)ccc12 (centres undefined),i,3,-7,-0.4,30,4,6.5,5,2,-1.0
C/C(=N/N=C/c1ccc(N(C)C)cc1)c1ccccc1,i,66,1,-2.9,-24,-5,-1.9,14,19,0.7
N#CC1=C(N)N(c2ccc(F)cc2)C(=O)C1,i,17,-10,0.8,-11,nt,2.9,8,4,4.6
CCN=C(NS(=O)(=O)c1ccc(Br)cc1)c1ccc(Cl)cc1,i,-4,-1,3.3,nt,-4,-1.5,-19,-16,7.6
Cc1ccc(-c2cc(C(=O)N3CCN(C4CCS(=O)(=O)C4)CC3)c3ccccc3n2)cc1 (centres undefined),i,1,nt,nt,nt,7,0.1,nt,nt,nt
COc1ccc(CC(=O)NC2CCN(CC(=O)N3CCCc4ccccc43)CC2)cc1OC,nt,-4,-28,1.2,-3,nt,nt,nt,nt,nt
COC(=O)c1nn(-c2ccccc2)c(=O)cc1Oc1ccc(Cl)cc1,nt,nt,15,-0.8,-1,-1,nt,nt,nt,nt
Cc1c(S(=O)(=O)Nc2cc(Cl)ccc2Cl)c(=O)n(C)c(=O)n1C,i,-5,-2,0.5,0,-5,-1.9,2,7,-3.8
Cc1ccc(-c2noc(C3CCCN(C(=O)c4ccc(F)cc4F)C3)n2)cc1 (centres undefined),nt,-2,-5,-5.2,-1,-1,nt,nt,nt,nt
Cc1ccc(Nc2cc(C)c(O)c(C)c2)cc1,i,52,-42,0.5,-8,-5,7.3,-1,3,-1.8
CC(/C=N/Nc1nnc2c(n1)[nH]c1ccccc12)=C\c1ccco1,nt,-3,13,1.8,-20,-7,nt,nt,nt,nt
Cn1cc(CCC(=O)NC2CC(C)(C)Cc3c2cnn3-c2ccc(F)cc2)cn1 (centres undefined),i,nt,-3,1.8,10,nt,-1.1,3,-3,-0.2

# One compound at a time (already shown). Screens in order: FGF22 binding, ALR H2O2 inh, Calb FLC, RanGTP-Impb inh, T cruzi inh, Beta apoptosis, MLL AF4-AF9 inh, Ecoli rRNA inh, Ecoli rRNA inh OD600, Ecoli rRNA inh RFP
# CC(/C=N/Nc1nnc2c(n1)[nH]c1ccccc12)=C\c1ccco1 as listed: nt, -3, 13, 1.8, -20, -7, nt, nt, nt, nt
# CCCCN=C(NNc1ccc(Br)cc1)C(=O)OCC as listed: i, 99*, 0, -0.2, 4, -7, 1.4, 7, 6, -3.2
# COC(=O)c1nn(-c2ccccc2)c(=O)cc1Oc1ccc(Cl)cc1 as listed: nt, nt, 15, -0.8, -1, -1, nt, nt, nt, nt
# COc1ccc(CC(=O)NC2CCN(CC(=O)N3CCCc4ccccc43)CC2)cc1OC as listed: nt, -4, -28, 1.2, -3, nt, nt, nt, nt, nt

# (next part)
SMILES,FGF22 binding,ALR H2O2 inh,Calb FLC,RanGTP-Impb inh,T cruzi inh,Beta apoptosis,MLL AF4-AF9 inh,Ecoli rRNA inh,Ecoli rRNA inh OD600,Ecoli rRNA inh RFP
CCCCNC(=O)CC(NS(=O)(=O)c1ccc(C)cc1)c1ccco1 (centres undefined),nt,-1,-29,?,8,-6,nt,nt,nt,nt
Cc1cc(Cl)c2oc(C(=O)NC(C)c3ccncn3)c(C)c2c1 (centres undefined),i,2,21,-2.1,3,-2,0.2,-2,-3,-3.3
N#Cc1ccc(CC(C(=O)O)N2Cc3ccccc3C2=O)cc1 (centres undefined),i,-6,6,4.8,-5,-5,6.2,-2,1,-3.0
CCOC(=O)C1=C(COC(=O)/C=C/c2cccc(OC)c2OC)NC(=O)NC1C (centres undefined),i,-5,-2,?,-9,0,2.5,-9,-15,-0.2
Cc1cccc(NC(=O)CSc2nnc(NC(=O)C3CC3)s2)c1C,i,2,14,6.0,-10,-5,0.7,6,10,-2.5
N#Cc1cc(S(=O)(=O)c2ccccc2)c(N)[nH]c1=O,nt,-7,-5,8.6,-3,-2,nt,nt,nt,nt
COc1ccc(/C=N/N2CCOCC2)cc1Cn1cc([N+](=O)[O-])cn1,i,-17,22,-4.3,-6,-8,-1.5,7,-8,-1.5
COc1cccc(C(=O)Nc2nnc(S(=O)(=O)N(C)Cc3ccc(F)cc3)s2)c1,i,84*,-11,-0.3,-6,8,-0.6,-10,-8,2.6
O=C(COC(=O)CCc1ccc(S(=O)(=O)N2CCOCC2)cc1)Nc1ccccc1OC(F)F,i,-2,nt,nt,nt,-8,-5.0,1,4,1.1
Cc1ccnc(NS(=O)(=O)c2ccc(NC(=O)C3COc4ccccc4O3)cc2)n1 (centres undefined),i,-2,14,5.9,1,-8,2.1,-10,2,-0.3
COc1ccc(N/N=C(/C#N)S(=O)(=O)c2nsc(C)c2C#N)cc1,nt,98*,-6,?,-12,-2,nt,nt,nt,nt
CSc1ccc(Cl)c(C(=O)NC2CCCC2)c1,nt,-4,4,-2.2,-5,2,nt,nt,nt,nt
Cc1nnc(SCC(=O)N2CCc3ccccc3C2)s1,nt,-15,-15,-0.2,11,-2,nt,nt,nt,nt
O=C(Oc1ccnc2cc(Cl)ccc12)N1CCOCC1,i,13,-16,6.2,-10,-9,0.2,12,-16,3.1
N#C[C@H]1C(O)C(O)c2ccccc2N1C(=O)c1ccccc1 (some centres undefined),i,-20,-2,-0.6,0,-6,-8.8,5,1,1.4
COc1ccccc1CCc1nnc(CCC(=O)NCC(C)Oc2cccnc2)o1 (centres undefined),i,-24,7,1.0,-10,-3,-0.3,10,5,1.0
C/C(=N\NC(=O)c1cc(-c2ccc(C)s2)[nH]n1)c1ccco1,i,-8,-8,-1.3,-30,4,3.6,-35*,-20*,-1.8*
O=C1c2ccccc2/C(=C\c2ccc3[nH]ccc3c2)N1c1ccccc1,i,-3,nt,nt,nt,-5,-2.7,2,3,0.1
CCC(=O)N(Cc1cc(=O)[nH]c2ccccc12)c1ccccc1,i,-15,2,2.5,-1,-3,-3.4,1,-4,-3.5
Cc1ccc(CNC(=O)COC(=O)c2cccc(S(=O)(=O)N3CCCCC3)c2)cc1,i,-3,nt,nt,nt,0,0.9,-21,-32,-4.5
C/C(=N\Nc1ccc(S(N)(=O)=O)cc1[N+](=O)[O-])c1cccs1,nt,-3,2,2.7,1,-2,2.0,14,19,1.1
Cc1c(C)c2ccc(O[C@@H]3O[C@H](CO)[C@@H](O)[C@H](O)[C@H]3O)c(C)c2oc1=O,i,-3,2,-0.7,3,-12,-3.3,10,17,2.6
CCOc1cccc(C(=O)NNC(=O)C2C3C=CC(C3)C2C(=O)O)c1 (centres undefined),i,-1,3,2.5,-3,7,1.6,15,11,5.0
Cc1cc(C)cc(N2C(N)=NC(N)=NC2c2cccc(Cl)c2)c1 (centres undefined),i,-5,-5,-4.4,22,-12,7.0,-7,-23,-2.0
Cc1ccc(Cn2nc(C)c(NC(=O)c3cc(C)no3)c2C)cc1,i,-3,-7,?,6,-5,-0.9,-2,4,4.2
Cc1cc(C)c2sc(NNC(=O)c3ccc(S(=O)(=O)N4CCc5ccccc5C4)cc3)nc2c1,i,-12,8,-1.2,59*,101*,13,nt,nt,nt
C=C(C)CN1C(=O)C(O)(CC(=O)c2ccc3c(c2)OCCO3)c2ccccc21 (centres undefined),nt,-10,-21,-2.1,-9,-2,nt,nt,nt,nt
